# Screening data deposited in PubChem BioAssay by National Center for Advancing Translational Sciences (NCATS).
# HPGD block: inhibitors of human 15-hydroxyprostaglandin dehydrogenase (HPGD) | P15428 | AID 894 | 150,000 compounds, 4.3% hits | purified HPGD, NADH fluorescence kinetic, PGE2 substrate | Potency, µM, for inactives: at the top dose activity change, negative = inhibition, usual class: inhibitors; active = well fitted inhibition curve with a large enough effect (not every such curve was filed as active); inconclusive = small, poorly fitted or top-dose-only effect, or another doubt; inactive = no such curve, though single readings can be large or run the other way;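 also: top concentration of the series not given in the record; plate controls included wells without enzyme; inactives centre near -10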
# Target sequence (P15428 whole entry, looked up): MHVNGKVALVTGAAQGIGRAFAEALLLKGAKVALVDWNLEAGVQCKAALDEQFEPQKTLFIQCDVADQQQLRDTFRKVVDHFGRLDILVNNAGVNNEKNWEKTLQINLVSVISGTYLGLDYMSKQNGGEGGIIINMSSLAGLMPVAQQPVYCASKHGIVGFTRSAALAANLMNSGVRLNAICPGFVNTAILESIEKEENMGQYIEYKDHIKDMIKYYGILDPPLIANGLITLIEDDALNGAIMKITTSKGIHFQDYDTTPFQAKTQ
#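 NADH formation kinetics: reaction with 30 uM PGE2 and 1 mM NAD+ (final), 20 nM enzyme, Tris-HCl pH 8 with Tween 20, after 15 min compound preincubation at room temperature. Fluorescence change, last versus first of five reads.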
# * marks the source's active call; other numbers are inactive results; ? = inconclusive. % is scaled to controls: 0 for no effect and ±100 for the full control effect; potency is read from the fitted curve at half-maximal effect. Only part of the results is shown; count on the stated rates, not on these rows.
> c1ccc(C2[C@H]3CN(Cc4cccnc4)[C@H](c4ccccc4)C34CC2(c2ccccc2)C4)cc1 (stereo not given in full)
  HPGD block: -5.3%

> CC(=O)NN1C(=O)/C(=C\c2ccc(C)cc2)SC1=S
  HPGD block: -14.6%

> CCOC(=O)/C(C#N)=C1/SC(CCO)C(=O)N1c1ccccc1 (stereo not given)
  HPGD block: 0.2%

> COc1cc(NC(=O)C2CCCCN2)ccc1OCC(C)C (stereo not given)
  HPGD block: -18.1%

> CC1(C)Cc2c(sc3c2c(=N)n(Cc2ccco2)c(=O)n3Cc2ccc(Cl)cc2)CO1
  HPGD block: -13.1%

> COc1ccc(/C=C/c2cc(OC)c(OC)cc2CC[N+](C)(C)C)cc1
  HPGD block: ?

> O=C(Nc1ccc(O)cc1)c1ccc(C(=O)c2ccccc2)o1
  HPGD block: ?

> Cc1ccc(NC(=S)NCc2ccccc2Cl)c(C)c1
  HPGD block: -27.2%

> CSCCC(Nc1ccc(S(=O)(=O)N2CCOCC2)cc1[N+](=O)[O-])C(=O)OCC(=O)N(C(C)C)C(C)C (stereo not given)
  HPGD block: -2.6%

> CC(/C=C/c1ccc(N(C)C)cc1)=N\N=C1\NC(=O)CC(C(=O)Nc2ccccc2)S1 (stereo not given)
  HPGD block: -15.4%

> O=C(COC(=O)Cc1ccc(S(=O)(=O)N2CCOCC2)s1)NCCc1ccccc1
  HPGD block: -2.4%

> CCOc1ccc(NC(=NCc2ccc3c(c2)OCO3)SC2CC(=O)N(c3ccc(OCC)cc3)C2=O)cc1 (stereo not given)
  HPGD block: -6.1%

> COC(=O)Cn1c(C(=O)N(C)C)cc2c1C[C@H]1CN(C(=O)c3ccccc3)[C@@](Cc3ccc(F)cc3)(C(=O)OC)[C@@H]21
  HPGD block: -4.5%

> O=C(/C=C/c1ccccc1)NNC(=O)c1cccc(Cl)c1
  HPGD block: -3.9%

> CCN(CC)S(=O)(=O)c1cccc(-c2nnc(SCC(N)=O)n2CCc2ccccc2)c1
  HPGD block: -5.3%

> Cc1ccc(S(=O)(=O)CC(=O)N2CCCC2)cc1
  HPGD block: -14.2%

> O=C(CSc1nnc(CNc2ccc(Cl)cc2)o1)Nc1nc2ccccc2s1
  HPGD block: -9.5%

> O=C(Nc1ccccc1N1CCOCC1)c1ccc(Br)o1
  HPGD block: ?

> O=C(Nc1nc(-c2ccccc2)cs1)c1ccc(N2CCOCC2)c([N+](=O)[O-])c1
  HPGD block: -10.8%

> Cc1cccc(CN2C(=O)N/C(=C/c3cc(C)n(-c4cc(C)ccn4)c3C)C2=O)c1
  HPGD block: ?

> Cc1[nH]c2ccccc2c1C(=O)CSc1nncn1C
  HPGD block: -18.7%

> Cc1ccc(S(=O)(=O)Oc2ccc(/C=C(/NC(=O)c3ccccc3)C(=O)Nc3ccccc3)cc2)cc1
  HPGD block: ?

> OCCN(CCO)CC(O)COc1ccc(C23CC4CC(CC(C4)C2)C3)cc1 (stereo not given)
  HPGD block: -4.6%

> COc1ccccc1CN(C(=O)CCl)C(C(=O)NC1CCCCC1)c1ccncc1 (stereo not given)
  HPGD block: -0.7%

> COc1ccc(CCNC(=O)C2CCN(S(=O)(=O)N3CCOCC3)CC2)cc1OC
  HPGD block: -11.6%

> Cc1cccn2c(=O)c3cc(C#N)c(=O)n(Cc4cccnc4)c3nc12
  HPGD block: ?

> CCC(C(=O)C(C)C(O)C(C)CCc1ccc(C)c(O)c1C(=O)O)C1OC(CC)(C2CC[C@@](O)(CC)C(C)O2)CC1C (stereo not given in full)
  HPGD block: -6.2%

> O=C(NCCN1CCOCC1)c1cc2cc(Br)ccc2oc1=O
  HPGD block: -15.5%

> CCOC(=O)c1ccc(NC(=O)CSc2nnc(CNc3ccc(C)cc3)n2C)cc1
  HPGD block: -12.4%

> CC(C)(C)NS(=O)(=O)c1ccc(NS(=O)(=O)c2ccc(F)cc2)cc1
  HPGD block: -6.5%

> COc1ccc(Br)cc1/C=C/C(=O)Nc1ccc2ccccc2c1
  HPGD block: -21.4%

> COc1cccc(CN2C(=O)CCC2(C)C(=O)NC2CCCCCC2)c1 (stereo not given)
  HPGD block: -13.9%

> Cc1cccc(C(=O)N2CCC(=O)N([C@H](COCc3ccc(Cl)cc3)Cc3ccccc3)CC2)c1
  HPGD block: -10.2%

> Clc1cccc(Oc2cnc3ccccc3n2)c1
  HPGD block: -11.4%

> Cc1cc([N+](=O)[O-])ccc1NCc1ccccc1
  HPGD block: -26.3%

> COc1nnc(-c2ccc(C)c(S(=O)(=O)NCCO)c2)c2ccccc12
  HPGD block: -22.4%

> COc1ccc(/C=C2\N=C(SC)NC2=O)cc1
  HPGD block: 22.4µM*

> CCNc1ncc2nc(-c3ccc(Cl)cc3)c(=O)n(C3CC3)c2n1
  HPGD block: ?

> O=C1Nc2ccc(F)cc2C12Nc1ccccc1-c1nnc(SCc3ccccc3Cl)nc1O2 (stereo not given)
  HPGD block: -9.6%

> CC/C(=N\NC(=O)c1ccccc1Cl)c1ccc(Br)s1
  HPGD block: 1.2%

> CC12CN3CC(C)(CN(C1)C3c1ccc(Cl)cc1Cl)C2O (stereo not given)
  HPGD block: -4.5%

> COC(=O)c1ccccc1NC(=O)CSc1ccccc1
  HPGD block: -27.3%

> CC(C)(C)n1nnnc1C(c1cccs1)N1CCN(c2ccccc2)CC1 (stereo not given)
  HPGD block: -11.7%

> CCc1nc(SCc2nc3ccccc3[nH]2)c2oc3ccccc3c2n1
  HPGD block: -29.0%

> Cc1cc(C)n(-c2nc(O)cc(=O)[nH]2)n1
  HPGD block: -17.6%

> COc1cnc(-c2ccccn2)nc1Oc1ccccc1Cl
  HPGD block: -6.4%

> Nn1c(SCC(=O)Nc2cccc(F)c2)nnc1C1CCCCC1
  HPGD block: -6.7%

> CCOc1ccc(NC(=O)CN(c2cc(C)cc(C)c2)S(=O)(=O)c2c(C)noc2C)cc1
  HPGD block: -0.4%

> COc1ccc(C(CC(=O)O)NC(=O)COc2ccccc2)cc1 (stereo not given)
  HPGD block: -4.0%

> Cc1cc(C=O)c(C)n1-c1ccc(NC2CCCCC2)c([N+](=O)[O-])c1
  HPGD block: 7.94µM*

> COc1ccc2cc(/C=N/NC(=O)CSCc3ccc([N+](=O)[O-])cc3)c(Cl)nc2c1
  HPGD block: -8.3%

> O=C(NCc1ccc(N2CCCC2=O)cc1)c1cn(Cc2ccccc2)nn1
  HPGD block: -5.4%

> Cc1ccnc(NS(=O)(=O)c2ccc(NC(=O)c3cc(-c4ccccc4)nc4ccccc34)cc2)n1
  HPGD block: -23.1%

> COc1c(-c2ccccc2)oc2c(ccc3occc32)c1=O
  HPGD block: ?

> CC(=O)N(c1ccc(Br)cc1)C1C=CS(=O)(=O)C1 (stereo not given)
  HPGD block: 1.4%

> O=C1c2ccccc2C(=O)N1CC(O)Cn1nnc2ccccc21 (stereo not given)
  HPGD block: -19.2%

> O=C1c2ccccc2C(Nc2ccc(S(=O)(=O)N3CCCCC3)cc2)N1Cc1ccco1 (stereo not given)
  HPGD block: -1.7%

> COc1ccc(C(=O)O/N=C(/C)c2cccs2)cc1
  HPGD block: -9.2%

> O=c1cc(O)n(-c2ccccc2F)c(=S)[nH]1
  HPGD block: -4.5%

> O=S(=O)(NCc1ccccn1)c1ccc(Br)s1
  HPGD block: -3.5%

# Some of the entries so far, with tabs.
Structure	HPGD block
COc1cnc(-c2ccccn2)nc1Oc1ccccc1Cl	-6.4%
Nn1c(SCC(=O)Nc2cccc(F)c2)nnc1C1CCCCC1	-6.7%
CCOc1ccc(NC(=O)CN(c2cc(C)cc(C)c2)S(=O)(=O)c2c(C)noc2C)cc1	-0.4%
COc1ccc(C(CC(=O)O)NC(=O)COc2ccccc2)cc1 (stereo not given)	-4.0%
Cc1cc(C=O)c(C)n1-c1ccc(NC2CCCCC2)c([N+](=O)[O-])c1	7.94µM*
COc1ccc2cc(/C=N/NC(=O)CSCc3ccc([N+](=O)[O-])cc3)c(Cl)nc2c1	-8.3%
O=C(NCc1ccc(N2CCCC2=O)cc1)c1cn(Cc2ccccc2)nn1	-5.4%
Cc1ccnc(NS(=O)(=O)c2ccc(NC(=O)c3cc(-c4ccccc4)nc4ccccc34)cc2)n1	-23.1%
COc1c(-c2ccccc2)oc2c(ccc3occc32)c1=O	?
CC(=O)N(c1ccc(Br)cc1)C1C=CS(=O)(=O)C1 (stereo not given)	1.4%
O=C1c2ccccc2C(=O)N1CC(O)Cn1nnc2ccccc21 (stereo not given)	-19.2%
O=C1c2ccccc2C(Nc2ccc(S(=O)(=O)N3CCCCC3)cc2)N1Cc1ccco1 (stereo not given)	-1.7%
COc1ccc(C(=O)O/N=C(/C)c2cccs2)cc1	-9.2%
O=c1cc(O)n(-c2ccccc2F)c(=S)[nH]1	-4.5%
O=S(=O)(NCc1ccccn1)c1ccc(Br)s1	-3.5%

# Further structures.
> Clc1ccc(CSC2=NCCN2)cc1Cl
  HPGD block: -12.9%

> CCc1c(O)nc2sc3ccccc3n2c1=O
  HPGD block: -22.4%

> CCOC(=O)CSc1nnc(-c2ccccc2)o1
  HPGD block: -10.1%

> Nc1nc(SCC(=O)N2N=C3/C(=C/c4ccco4)CCCC3C2c2ccco2)n[nH]1 (stereo not given)
  HPGD block: -4.5%

> CC(C)Cc1[nH]c(=O)c(C#N)c2c1COC(C)(C)C2
  HPGD block: ?

> COC(=O)NC(C(=O)OC)(C(=O)OC)c1ccccc1
  HPGD block: -2.9%

> Cc1cccc(CNc2ncnc3ccc(-c4c(C)noc4C)cc23)c1
  HPGD block: 12.6µM*

> CC(C(=O)O)n1nc2ccccc2n1 (stereo not given)
  HPGD block: -1.1%

> CN(C(=O)C1CCN(S(=O)(=O)c2cccs2)CC1)C1CCCCC1
  HPGD block: -1.3%

> CCn1c(CSc2nc3ccccc3[nH]2)nc2cc(C(=O)O)ccc21
  HPGD block: ?

> CC(=O)Nc1ccc(SCC(=O)Nc2cc(C(C)(C)C)nn2-c2ccccc2)cc1
  HPGD block: -10.0%

> Fc1ccc(C(c2nnnn2Cc2cccs2)N2CCN(C3CCCC3)CC2)cc1 (stereo not given)
  HPGD block: -2.9%

> CCCCNC(=O)CNC(=S)N(CCCN1CCOCC1)Cc1cccs1
  HPGD block: -14.2%

> O=C(O)c1cc(-c2ccccc2)nc2ccccc12
  HPGD block: -4.8%

> O=C(CN(Cc1ccco1)S(=O)(=O)c1ccccc1)N/N=C/c1cccc(O)c1
  HPGD block: -13.0%

> Cc1ccc(C)c(OCCn2cc(/C=C(/C#N)C(=O)NCC3CCCO3)c3ccccc32)c1 (stereo not given)
  HPGD block: ?

> COc1ccc(OC)c(/C=C2\S/C(=N/NC(=O)c3ccc4ccccc4c3)NC2=O)c1
  HPGD block: 3.98µM*

> CCN(C(C)=O)c1nnc(CSc2nc3ccccc3s2)s1
  HPGD block: -4.9%

> COc1ccc(CCNC(=O)CCCCCN2C(=O)c3ccccc3C2=O)cc1OC
  HPGD block: -6.1%

> Cc1cc(C(=O)N2CCN(C(c3ccccc3)c3ccccc3)CC2)no1
  HPGD block: 3.6%

> CC(=O)N(Cc1cc(=O)[nH]c2ccccc12)c1cccc(C)c1
  HPGD block: ?

> CCCn1c(/C=C/c2ccccc2)nc2ccccc21
  HPGD block: ?

> Cc1c(Cl)c(=O)oc2cc(OC(C)C)ccc12
  HPGD block: ?

> COCc1c(C(=O)OCC(=O)NCCN2C(=O)CSC2=O)oc2ccccc12
  HPGD block: -18.2%

> FC(F)(F)c1cccc(Cl)c1
  HPGD block: -6.2%

> COc1cc(NC(=O)C2CCCN(c3ncccn3)C2)cc(OC)c1 (stereo not given)
  HPGD block: ?

> CC(=O)c1c(C)[nH]c(C(=O)NCc2ccccc2Cl)c1C
  HPGD block: -11.8%

> CCC(C)NC(=O)CS(=O)Cc1nc(-c2cccc(OC)c2)oc1C (stereo not given)
  HPGD block: -6.2%

> Clc1ccc(Nc2nc(-c3cccnc3)cs2)cc1
  HPGD block: -6.1%

> O=C(NCC1CCCO1)C(C(=O)c1ccccc1)n1ccccc1=O (stereo not given)
  HPGD block: -12.0%

> C(=N\N1CCN(Cc2cccc3ccccc23)CC1)/c1ccco1
  HPGD block: -9.1%

> CCS(=O)(=O)N1CCCC(C(=O)NC2CCCCC2C)C1 (stereo not given)
  HPGD block: 1.2%

> COc1ccc(OC)c(C(c2nnnn2CCc2ccccc2)N2CCC(C(N)=O)CC2)c1 (stereo not given)
  HPGD block: -0.1%

> CNC[C@H](O)c1ccc(OC(=O)C(C)(C)C)c(OC(=O)C(C)(C)C)c1
  HPGD block: 3.6%

> COc1ccc(N(CC(=O)Nc2c(C)n(C)n(-c3ccccc3)c2=O)S(=O)(=O)c2ccccc2)cc1OC
  HPGD block: -3.3%

> O=C(Cn1c(=O)oc2cc(S(=O)(=O)N3CCCC3)ccc21)N1CCc2ccccc2C1
  HPGD block: -8.6%

> C#CCOC(=O)Nc1ccc(=O)n(Cc2c(Cl)cccc2Cl)c1
  HPGD block: ?

> COc1cc(CN2CCC(C(=O)NC3CCCC3)CC2)ccc1O
  HPGD block: -3.5%

> Cc1cc(C)c(S(=O)(=O)NCCn2c(C)cc3ccccc32)c(C)c1
  HPGD block: -15.6%

> COc1ccc(OC)c(NC2c3ccccc3C(=O)N2c2cccnc2)c1 (stereo not given)
  HPGD block: -14.4%

> O=C(NCCOc1ccccc1)O[C@@H]1C(=O)c2cc(Br)ccc2O[C@H]1c1ccc2c(c1)OCO2
  HPGD block: -7.5%

> COc1ccccc1CNC(=O)C1CCN(S(=O)(=O)N2CC(C)CC(C)C2)CC1 (stereo not given)
  HPGD block: -3.2%

> OC1CNCc2cc3c(cc21)OCCO3 (stereo not given)
  HPGD block: -3.7%

> Cc1ccc(C(=O)Nc2ccc(F)cc2)o1
  HPGD block: -2.4%

> O=C(CSc1nnc(-c2ccncc2)n1CC1CCCO1)Nc1cccc(O)c1 (stereo not given)
  HPGD block: -13.1%
